Compound activity: PubChem BioAssay, National Center for Advancing Translational Sciences (NCATS)
DNA Pol III inh: qHTS Assay for Inhibitors of DNA Polymerase III Holoenzyme System | 71,000 compounds, 0.25% hits | reconstituted DNA polymerase III holoenzyme replication, biochemical | Potency, µM (highest dose often 57.1 µM), without a hit: top-dose activity change, negative = inhibition | AID 603, 2007; also: potency is read from the fitted curve at half-maximal effect; % is scaled to controls: 0 for no effect and ±100 for the full control effect
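Reconstituted *E. coli* holoenzyme (0.35 nM Pol III, 1 nM beta, 154 nM SSB, 2 nM primase) was preincubated with compound for 15 min at RT. Synthesis on 1.4 nM ssM13Gori ran 35 min, then was stopped with PicoGreen/EDTA and read as dsDNA fluorescence.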
GFP derepression: qHTS Assay for Epigenetic Modulators | mouse C127i GFP locus derepression, cytometry, 30 h | Potency, µM (titrated, usually from 46.1 µM), without a hit: top-dose GFP derepression (activation) | 68,000 compounds, 0.09% hits; also: % of control where 0% means no effect
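Read-out is the number of GFP-positive cells, scored as fluorescent objects 20 to 120 um wide, reflecting derepression of a silenced CMV-GFP reporter in murine C127i cells after 30 h compound exposure at 37 C.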
HBB splicing: qHTS Assay for Modulators of Hemoglobin Beta Chain Splicing; HBB splicing reporter cell assay, activation; EGFP reporter with mutant IVS2-654 intron; response scale: normalised to 500 nM splice-correcting PNA; Potency, µM (doses to about 46.1 µM), for inactives: at the highest dose activation, most hits filed as activators; 65,000 compounds, 0.06% hits; AID 925, 2007; also: potency is read from the fitted curve at half-maximal effect; 0% is about no effect
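Compounds were applied for 2 days to HeLa EGFP-654 cells, 500/well in Optimem with 2% FCS. The reporter's EGFP is disrupted by mis-splicing of beta-globin intron IVS2-654. Readout: summed well GFP fluorescence from 488 nm laser scanning; reference was 500 nM antisense […] 654 PNA.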
Hsp90 Hop PPI: qHTS Assay for Disrupters of an Hsp90 Co-Chaperone Interaction | Hsp90 C-terminal peptide / TPR2A (Hop) interaction, human | AlphaScreen TPR2A-His6 binding biotin-Hsp90 C-terminal peptide | Potency, µM (highest dose often 57 µM), without a hit: at the top dose activity change, negative = inhibition | 71,000 compounds, 0.44% hits | AID 595, 2007; active = well fitted curve in either direction with a large enough effect; inconclusive = small, poorly fitted or top-dose-only effect, or another doubt; also: potency is read from the fitted curve at half-maximal effect; % is scaled to controls: 0 for no effect and ±100 for the full control effect; many of its hits are not listed in these tables
ALOX15 inhib: qHTS Assay for Inhibitors of 15-hLO (15-human lipoxygenase). Potency, µM (top dose mostly 57.1 µM), inactives show top-dose activity change, negative = inhibition, actives largely listed as inhibitors. 74,000 compounds, 1.4% hits. AID 887, 2007. purified 15hLO-1, xylenol orange hydroperoxide absorbance. Polyunsaturated fatty acid lipoxygenase ALOX15 (Homo sapiens), P16050; also: potency is read from the fitted curve at half-maximal effect; % is scaled to controls: 0 for no effect and ±100 for the full control effect; nearly all actives have a fitted effect of over 55% in size
Target sequence (P16050 whole entry, looked up): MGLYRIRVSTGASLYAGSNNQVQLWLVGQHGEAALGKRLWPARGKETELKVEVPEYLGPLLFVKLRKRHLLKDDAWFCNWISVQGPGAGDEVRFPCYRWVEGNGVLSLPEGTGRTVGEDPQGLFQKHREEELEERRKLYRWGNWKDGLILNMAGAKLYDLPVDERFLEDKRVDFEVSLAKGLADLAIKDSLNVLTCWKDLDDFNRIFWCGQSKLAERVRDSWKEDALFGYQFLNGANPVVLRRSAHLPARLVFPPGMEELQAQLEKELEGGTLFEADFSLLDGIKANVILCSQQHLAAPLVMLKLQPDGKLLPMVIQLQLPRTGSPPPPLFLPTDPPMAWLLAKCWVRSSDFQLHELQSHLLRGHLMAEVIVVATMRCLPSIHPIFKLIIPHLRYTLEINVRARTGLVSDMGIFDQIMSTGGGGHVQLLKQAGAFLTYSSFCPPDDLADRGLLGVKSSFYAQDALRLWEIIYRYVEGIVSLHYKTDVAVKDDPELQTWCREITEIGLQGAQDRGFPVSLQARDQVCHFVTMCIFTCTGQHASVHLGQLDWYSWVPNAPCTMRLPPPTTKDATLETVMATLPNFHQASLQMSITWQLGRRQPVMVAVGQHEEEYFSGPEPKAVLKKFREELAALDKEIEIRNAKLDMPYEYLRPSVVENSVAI
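Hydroperoxide formed from arachidonic acid (50 uM) by purified human 15hLO-1 (40 nM) oxidizes ferrous iron, and the ferric-xylenol orange complex is read at 573 versus 405 nm. Compounds were preincubated 15 min; reaction ran 6 min at room temperature.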
Fluorescein autfl: qHTS Assay for Spectroscopic Profiling in Fluorescein Spectral Region | AID 593, 2007 | 59,000 compounds, 0.91% hits | max fluorescein-equivalent concentration, M | Compound autofluorescence, 480/540 nm, fluorescein-equivalent; active compounds read high; in the data active = max fluorescein-equivalent concentration above about 10 nM; inconclusive = between about 1.1 nM and that limit
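Read-out is intrinsic compound fluorescence at 480/540 nm (excitation/emission), expressed as dye-equivalent concentration using a fluorescein standard series run on every plate. Compounds sat 15 min at room temperature in 100 mM Tris, pH 8.0.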
Rhodamine fluor: qHTS Assay for Spectroscopic Profiling in Rhodamine Spectral Region; AID 594, 2007; max dye-equivalent concentration, M; 59,000 compounds, 0.05% hits; Rhodamine-region fluorescence, 547/598 nm, Tris buffer; active compounds read high; in the data active = max dye-equivalent concentration above about 11 nM; inconclusive = between about 1.1 nM and that limit
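Compounds in 100 mM Tris buffer, pH 8.0, were incubated 15 min at room temperature, then read at 547 nm excitation and 598 nm emission. Fluorescence was normalized against a per-plate six-point rhodamine standard curve as dye-equivalent concentration.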
TexasRed autofl: qHTS Assay for Spectroscopic Profiling in Texas Red Spectral Region; max dye-equivalent concentration, M; Compound fluorescence, Texas Red channel, 547/618 nm; active compounds read high; 59,000 compounds, 0.06% hits; in the data active = max dye-equivalent concentration above about 10 nM; inconclusive = between about 1.1 nM and that limit
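Spectral interference profiling: each compound concentration's relative fluorescence, read with a 547 nm excitation and 618 nm emission filter pair, was normalized to a per-plate Texas Red standard curve.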
Ub-GFP proteasome: Ubiquitin-GFP Assay | Ubiquitin-GFP reporter cells, proteasome inhibition, GFP fluorescence; response scale: untreated = 0%, 10 µM MG-132 = 100% | Potency, µM (highest dose often 45.9 µM), without a hit: at the highest dose activation (GFP accumulation), actives largely listed as activators | 67,000 tested, under 10 active | AID 526, 2006; active = well fitted activation curve with a large enough effect, not every such curve was filed as active; inconclusive = small, poorly fitted or top-dose-only effect, or another doubt; inactive = no such curve, though single readings can be large or run the other way; also: potency is read from the fitted curve at half-maximal effect
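U2OS cells stably expressing ubiquitin(G76V)-GFP, seeded overnight in 0.5% FBS medium, were exposed to compounds (qHTS, 46 uM to 2.9 nM) for 4 hr at 37 °C. GFP-positive cells were counted by laser cytometry (488 ex/515 em), normalized between basal and 10 uM MG-132.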
* = called active by the depositor; i = inactive; ? = inconclusive; / = no result given; [ ] = another dose, or the depositor's remark. Unless noted, calls follow the shape of the dose curve; as a rule, active = well fitted curve in the direction sought with a large enough effect; inconclusive = small, poorly fitted or top-dose-only effect, or another doubt; inactive = no such curve, though single readings can be large; an effect the other way counts as inactive or inconclusive. A portion of the library (hit frequency here may not be typical).

entry | compound | DNA Pol III inh | GFP derepression | HBB splicing | Hsp90 Hop PPI | ALOX15 inhib | Fluorescein autfl | Rhodamine fluor | TexasRed autofl | Ub-GFP proteasome
1 | CCOC(=O)c1cc2occc2n1CC(=O)Nc1ccc(OC)cc1OC | -4% | 0% | / | -6% | -6% | i | i | i | 14%
2 | NC(=O)c1cc(-c2ccccc2)nc(N2CCOCC2)n1 | 6% | -2% | 1.5%[1.84 µM] | -2% | -1% | ? | i | i | -4%
3 | COc1ccccc1NC(=O)c1ccc(-c2ccccc2F)o1 | 5% | -3% | -0.7% | 2% | -5% | ? | i | ? | -3%
4 | CCc1nnc2sc(-c3ccc(NC(=O)c4ccc5c(c4)OCCO5)cc3)nn12 | -11% | -3% | -1.1% | -5% | 4% | ? | i | i | -2%
5 | COc1ccccc1CNC(=O)C(C)NS(=O)(=O)c1ccccc1 (stereo not drawn) | -1% | -3% | -0.5% | -4% | -13% | i | i | i | 5%
6 | COc1ccc(C(=O)Nc2ccc(Cl)c(Cl)c2)c(OC)n1 | -4% | -3% | -1.8% | 2% | -5% | i | i | ? | 9%
7 | CCOC(=O)CSc1nc2c(c(=O)[nH]c(=O)n2C)n1C/C=C(/C)Cl | -6% | 4% | 3.4%[57.5 µM] | -5% | -13% | i | i | ? | 4%
8 | CCN(CC)S(=O)(=O)c1cccc(C(=O)Nc2nc3cc4c(cc3s2)OCCO4)c1 | 10% | 2% | -2.5% | 21% | -24% | i | i | i | -14%
9 | CCOC(=O)Cc1c(C)nc2cc(-c3ccc(C)cc3)[nH]n2c1=O | -4% | 2% | 2.1% | -2% | 9% | ? | i | i | 0%
10 | CCOC(=O)c1sc(=S)n(-c2cc(OC)ccc2OC)c1N | -7% | 2% | -1.4% | -7% | 13µM* | i | i | i | -6%
11 | O=C(Nc1ccc(Oc2ccccc2)cc1)C1CCCN(c2ncccn2)C1 (stereo not drawn) | -4% | 4% | 0.0%[57.5 µM] | -3% | 0% | i | i | i | -5%
12 | Cc1ccc(-c2nn3c(C)nnc3s2)cc1NCc1c(F)cccc1Cl | 4% | 8% | 1.6% | -2% | 6% | i | i | i | 14%
13 | CCOc1ccc(-n2c(SCC(=O)Nc3ccc(OC)cc3OC)nc3c(c2=O)SCC3)cc1 | -4% | 1% | -1.4% | ? | -9% | i | i | i | -8%
14 | Nc1ccc2c(c1)C(=O)N(CCCC(=O)O)C2=O | 2% | 0% | -3.1% | 3% | 3% | ? | i | i | -2%
15 | CC(=O)N(CC(=O)Nc1nn(-c2ccccc2)nc1C(N)=O)Cc1ccccc1 | -2% | -2% | -1.2% | -2% | 3% | i | i | i | 10%
16 | Cc1nn(Cc2ccc(F)cc2)c(C)c1NC(=O)c1noc2c1CCCCC2 | -5% | 6% | 0.9% | 1% | -5% | i | i | i | -10%
17 | Cc1csc(NC(=O)CSc2nc3sc(C)c(C)c3c(=O)[nH]2)n1 | -5% | 0% | -3.7% | 1% | -19% | i | i | i | -5%
18 | NC1C2CN(c3nc4c(cc3F)c(=O)c(C(=O)O)cn4-c3ccc(F)cc3F)CC12 (stereo not drawn) | -15% | 2% | 2.6%[57.5 µM] | 1% | -5% | i | i | i | 4%
19 | CC1Cc2nc(SCC(=O)Nc3ccc(F)cc3)n(C)c(=O)c2S1 (stereo not drawn) | -3% | -1% | 2.3% | -5% | -2% | i | i | i | 0%
20 | Cc1noc(C)c1-c1nc(NCCN2CCOCC2)c2ccccc2n1 | -2% | 0%[9.22 µM] | -0.3% | -4% | ? | i | i | i | -4%
21 | CC(C)(C)c1ccc(C(=O)CCCSC2=C(C#N)C(c3ccco3)C3=C(CCCC3=O)N2)cc1 (stereo not drawn) | -4% | -3% | -0.5% | -7% | -30% | i | i | i | -6%
22 | CSc1ccc(S(=O)(=O)NCc2ccc(Cl)cc2)cc1 | 3% | 3% | 1.7% | 5% | -7% | i | i | i | 3%
23 | O=C(Nc1nnc(SCC(=O)N2CCCCC2)s1)c1cccs1 | -2% | 2% | 0.1%[57.5 µM] | 0% | ? | i | i | i | -4%
24 | Cc1cc(NC(=O)c2cc(Cl)ccc2Cl)no1 | -7% | 0% | -2.6% | -3% | 3% | ? | i | ? | 10%
25 | COC(=O)c1c(-c2ccc(OC)c(OC)c2)csc1N | -11% | 0% | -0.5% | -10% | -17% | i | i | i | 9%
26 | CCOc1ccc(OCC)c(NC(=O)C2CCCN(c3ncccn3)C2)c1 (stereo not drawn) | -1% | 0% | / | -6% | -1% | i | i | i | -5%
27 | COc1ccccc1CNc1ncnc2ccc(-c3ccc(C(=O)N(C)C)cc3)cc12 | 4% | 22%[9.22 µM] | -2.2% | -5% | 0% | i | i | i | -2%
28 | CCCC(C)c1nnc(NC(=O)C2CCCO2)s1 (stereo not drawn) | -2% | -3% | -0.7% | -2% | -20% | i | i | i | 8%
29 | CCOc1ccc(NC(=O)c2nnn(CC(=O)Nc3ccccc3OC)c2N)cc1 | 0% | 1% | -2.2% | -6% | 1% | i | i | i | -2%
30 | Cc1nnc(NC(=O)C2CCCN(c3ncccn3)C2)s1 (stereo not drawn) | -4% | 1% | -4.5% | -4% | -7% | ? | i | i | -3%
31 | CN(C)c1ccc(-c2noc(C3CCN(S(=O)(=O)c4cccc(Cl)c4)CC3)n2)cc1 | -1% | 1% | -0.6% | -10% | -3% | ? | i | ? | -2%
32 | COc1ccccc1N1CCN(CC(O)COc2ccc3c(C)cc(=O)oc3c2)CC1 (stereo not drawn) | 4% | 4% | 3.9% | -6% | 3% | i | i | i | -6%
33 | O=Nc1ccc2oc(=O)ccc2c1 | -7% | -1% | 4.1% | -8% | ? | ? | i | i | 2%
34 | Clc1ccc(-c2nn3c(C4COc5ccccc5O4)nnc3s2)cc1 (stereo not drawn) | 0% | 4% | 0.3%[57.5 µM] | -5% | -24% | i | i | ? | -2%
35 | C=C(c1ccc(O)cc1)c1ccc(O)cc1 | 9% | 0% | -0.1% | 0% | -28% | i | i | i | 10%
36 | COc1ccc(CC(=O)Nc2cccc(-c3nnc(-c4cccc(C)c4)o3)c2)cc1OC | -8% | -6% | -0.9% | -4% | -14% | i | i | i | 2%
37 | COCc1nnc(NC(=O)CSc2ccc(C)cc2)s1 | 5% | 0% | / | 2% | -8% | i | i | i | 6%
38 | C#C[C@]1(O)CC[C@H]2[C@H]3CCC4=Cc5oncc5C[C@]4(C)[C@@H]3CC[C@]21C | -3% | -1% | / | -3% | -25%[25.6 µM] | / | / | / | 3%
39 | O=c1[nH]c(-c2ccncc2)nc2ccccc12 | -5% | -3% | 0.1%[57.5 µM] | 0% | ? | i | i | i | 1%
40 | COC(=O)c1ccccc1NC(=O)NCC1CCCO1 (stereo not drawn) | 2% | 5% | 0.1% | -4% | 4% | i | i | ? | 5%
41 | COc1cc(C2/C(=C(/O)c3ccc(F)cc3)C(=O)C(=O)N2CCCC(=O)O)ccc1O (stereo not drawn) | 3% | 2% | 4.7% | -3% | 16% | i | i | i | 0%
42 | Oc1ccc(-c2cccc(-c3ccc(O)cc3)n2)cc1 | 18% | 1% | 0.2%[57.5 µM] | -1% | -13% | i | i | i | -3%
43 | N#CC1=C2SCN(Cc3ccco3)CN2C(=O)CC1c1ccc(Cl)cc1 (stereo not drawn) | -4% | 4% | 1.7%[0.369 µM] | -5% | 13µM* | i | i | i | 0%
44 | Cc1ccc(C(=O)CSc2ncn[nH]2)cc1 | -6% | 0% | -1.5% | -2% | -17% | ? | i | i | -1%
45 | CCOC(=O)Nc1sc(C(=O)N(CC)CC)c(C)c1C(=O)OCC | 4% | 0% | 4.3% | -1% | -28% | i | i | ? | -1%
46 | CC(C)(C)c1csc(NC(=O)c2cccs2)n1 | 0% | 0% | 0.7% | 2% | ? | ? | i | i | -6%
47 | O=C(Nc1cccc(C(F)(F)F)c1)C1CCCN(c2ncccn2)C1 (stereo not drawn) | -4% | 2% | / | 8% | ? | ? | i | i | -3%
48 | COc1ccccc1NS(=O)(=O)c1cc(Cl)ccc1OC | 4% | -3% | 0.7% | -2% | 1% | i | i | i | 11%
49 | Cc1cnc(CNc2ncnc3ccc(-c4cccc(C#N)c4)cc23)cn1 | -5% | -3%[9.22 µM] | -0.4% | -1% | -5% | ? | i | i | 2%
50 | CCOC(=O)/C=c1\sc2n(c1=O)CCN=2 | -1% | 0% | -2.1%[57.5 µM] | -6% | -1% | ? | i | i | 3%
51 | CSc1nc(-c2ccco2)nn1C(=O)c1cccs1 | -2% | -1% | 0.8% | 4% | -8% | i | i | i | 5%
52 | CC(C)c1nc2oc3c(=O)[nH]cnc3c2c2c1CCC2 | -6% | 0% | 1.3% | -3% | 0% | ? | i | i | 0%

From entry 49 as far as 50, as listed above:
entry | compound | DNA Pol III inh | GFP derepression | HBB splicing | Hsp90 Hop PPI | ALOX15 inhib | Fluorescein autfl | Rhodamine fluor | TexasRed autofl | Ub-GFP proteasome
49 | Cc1cnc(CNc2ncnc3ccc(-c4cccc(C#N)c4)cc23)cn1 | -5% | -3%[9.22 µM] | -0.4% | -1% | -5% | ? | i | i | 2%
50 | CCOC(=O)/C=c1\sc2n(c1=O)CCN=2 | -1% | 0% | -2.1%[57.5 µM] | -6% | -1% | ? | i | i | 3%
